AF4-AF9 inh – MLL-AF4/AF9 protein interaction inhibition. AlphaScreen, biotin-AF4 peptide binding to FLAG-AF9. inhibition, % at 10 µM. P42568. hit rate 0.47% among 350,000;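 active = every replicate reaching a set inhibition limit, whatever the replicate mean, cut at about 25% in these data; inconclusive = mean inhibition reaches that limit but some replicates miss it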;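 also: 0% = plate neutral control median and 100% = total signal loss; the record names both 10 and 1 µM as test concentration; the first replicate is given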
FGF22 binding – binders of recombinant human FGF22 by thermal shift. SYPRO orange fluorescence; percent of sucrose octasulfate shift, DMSO zero. calls only at 9.99 µM. hit rate 1.5% among 340,000. AID 651658;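 active = melting point raised past a set limit in the mean and every replicate; inconclusive = no clear call; three in four hits are not shown here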
Target sequence (Q9HCT0 whole entry, looked up): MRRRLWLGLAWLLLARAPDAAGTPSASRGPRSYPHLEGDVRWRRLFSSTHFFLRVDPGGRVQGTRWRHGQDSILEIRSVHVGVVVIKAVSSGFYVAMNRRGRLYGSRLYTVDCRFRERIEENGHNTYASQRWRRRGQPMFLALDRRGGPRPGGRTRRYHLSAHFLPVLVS
HNF4A DNA FP – change in binding of human HNF4 alpha to DNA. P41235. activity change, % at 10 µM. HNF4a-FITC DNA binding, fluorescence polarization, 1 h. hit rate 0.3% among 360,000; in the data active = activity change above about 30%, passing the limit was not always enough;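 also: controls were the assay level and a saturating level of protein; the project sought stronger binding though the title names inhibitors; some compounds called inactive have numbers as strong as hits; positive values seem to mean higher polarization but the record does not say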
Target sequence (P41235 whole entry, looked up): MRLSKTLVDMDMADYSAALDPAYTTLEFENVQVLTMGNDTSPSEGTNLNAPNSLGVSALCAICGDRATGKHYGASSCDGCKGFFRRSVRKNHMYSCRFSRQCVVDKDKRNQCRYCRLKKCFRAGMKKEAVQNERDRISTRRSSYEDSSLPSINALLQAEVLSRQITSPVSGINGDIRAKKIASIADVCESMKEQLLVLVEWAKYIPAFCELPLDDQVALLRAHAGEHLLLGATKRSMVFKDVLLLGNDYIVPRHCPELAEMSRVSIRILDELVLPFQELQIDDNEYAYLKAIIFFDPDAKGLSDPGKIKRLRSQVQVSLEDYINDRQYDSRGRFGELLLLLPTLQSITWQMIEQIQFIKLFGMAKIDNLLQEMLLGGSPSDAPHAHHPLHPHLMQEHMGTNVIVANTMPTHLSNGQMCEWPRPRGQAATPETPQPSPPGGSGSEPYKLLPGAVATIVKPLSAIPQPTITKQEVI
RanGTP-Imp inh – inhibitors of RanGTP-importin-beta interaction, primary screen, biochemical, FRET, CFP-Ran, YFP-importin-beta, homogeneous; hit rate 1.1% among 300,000; inhibition, % (concentration not given with the values); AID 2216; cell-free CFP-Ran/YFP-importin-beta FRET ratio;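 active = most replicates above 15%; inconclusive = exactly half above 15%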;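 also: 0% = DMSO wells and 100% = Ran loaded with GDP instead of GTP; wells of about 40 µL received 100 nL stock; the first replicate is given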
UCH37 inh – human UCH37 deubiquitinating enzyme inhibition; Q9Y5K5; purified proteasome/UCH37, Ub-AMC cleavage fluorescence; inhibition, % (test concentration not listed); hit rate 0.33% among 330,000; AID 588478;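 active = mean of two replicates above 20%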;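 also: 0% = compound-free wells with enzyme and 100% = wells lacking proteasome; stock transfer was 100 nL into about 20 µL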
Target sequence (Q9Y5K5 whole entry, looked up): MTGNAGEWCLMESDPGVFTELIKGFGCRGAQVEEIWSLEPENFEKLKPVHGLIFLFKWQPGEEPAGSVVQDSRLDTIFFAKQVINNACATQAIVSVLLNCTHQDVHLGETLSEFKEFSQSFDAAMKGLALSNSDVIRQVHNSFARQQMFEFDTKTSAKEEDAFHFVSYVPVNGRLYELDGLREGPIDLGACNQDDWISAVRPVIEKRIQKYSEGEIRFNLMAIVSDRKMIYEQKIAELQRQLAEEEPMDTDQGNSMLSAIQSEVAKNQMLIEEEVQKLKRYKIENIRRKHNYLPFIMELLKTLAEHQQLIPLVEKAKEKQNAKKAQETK
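Signal – fluorescence, ex 355 nm, em 460 nm · System – Proteasome-bound UCH37 · Input – 0.15 nM proteasome as dispensed · Timing – 30 min preincubation with enzyme, 25 min cleavage at room temperature · Read-out basis – percent inhibition of cleavage signal versus uninhibited and no-proteasome wells · Medium – Tris-HCl pH 7.4 with ATP-MgCl2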
Ecoli growth – inhibitors of Escherichia coli growth | OD600, 23 h; hits give low values | OD600 absorbance (no concentration beside the values) | hit rate 0.21% among 330,000;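 active = OD600 absorbance below the run mean of sample wells minus 3.6 SD, in any replicate, cut at about 0.56 in these data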;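 also: stock transfer was 300 nL into about 60 µL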
Vif A3G – HIV-1 Vif–A3G interaction blockers – biochemical, TR-FRET, GST-Vif 1-94, biotin-A3G peptide, dose response retest, primary screen (AID 1117319); TR-FRET GST-Vif / biotin-A3G peptide binding; higher % means a stronger effect; test concentration not given here; strong numbers were not always called active; inhibition, %; hits with a dose series show IC50 in µM; hit rate 0.57% among 260,000;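 active = above the screen mean plus three standard deviations and confirmed in dose response; inconclusive = results disagree or hit not tested in dose response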;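 also: Vif residues 1-94 fused to GST binding biotinylated APOBEC3G peptide 110-148; 0% = full assay without inhibitor and 100% = GST in place of GST-Vif; retest series ran down from 100 µM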
* marks the source's active call; other numbers are inactive results; i = inactive; ? = inconclusive; · = not tested or not shown; & = joins results of further samples. This is a subset; the hit share may differ from the screen's.

SMILES	AF4-AF9 inh	FGF22 binding	HNF4A DNA FP	RanGTP-Imp inh	UCH37 inh	Ecoli growth	Vif A3G
Cc1ccc(C2N(c3cc(C)on3)C(=O)C3CCCN32)cc1 (stereo unspecified)	·	·	-0.2	0.0	-0.3	0.64	2%
CC(=NCCN1CCOCC1)c1c(O)n(C2CCCCC2)c(=O)[nH]c1=O	·	·	-4.0	6.9	2.6	0.68	1%
O=C(NC(Cc1ccccc1)C(=O)N1CCC2(CC1)OCCO2)C1CCCCC1 (stereo unspecified)	·	·	-0.4	8.1	-0.1	0.73	-3%
O=C(N/N=C/c1c(O)n(-c2ccccc2)c(=S)[nH]c1=O)c1ccccc1	13	i	0.7	3.1	2.4	0.69	23%
S=C(NCCc1ccccc1)N1Cc2ccccc2-n2nncc2C1	-0.9	i	-1.7	·	·	·	·
CC(=NCC1CCCO1)c1c(O)n(-c2ccc(Cl)cc2)c(=O)[nH]c1=O (stereo unspecified)	·	·	-0.3	-0.5	5.2	0.71	11%
Cc1ccc(-c2nc(N3CCOCC3)s[n+]2-c2ccccc2)cc1	·	·	0.0	4.3	5.4	0.51*	13%
CCN1C[C@]2(COC)CC[C@H](O)[C@@]34C5C[C@@H]6[C@@H](OC)C[C@@](O)(C5[C@H]6O)[C@](O)([C@@H](OC)C23)[C@@H]14 (stereo partly specified)	-1.2	i	4.6	-4.7	5.4	0.77	·
Cc1cccc(NP(=O)(Oc2ccccc2)Oc2ccccc2)c1C	-1.2	i	-2.8	4.0	4.1	0.65	-2%
c1ccc(C(c2ccccc2)c2cccnc2)cc1	1.0	i	0.1	·	0.0	0.65	-3%
COc1ccc(C(=O)C2CCCN(Cc3ccc(C)s3)C2)c(OC)c1 (stereo unspecified)	2.9	i	0.0	0.4	4.1	0.71	·
c1ccc2nc(N3CCNCC3)ccc2c1	-3.3&-1.9	i	1.4&6.8	·	-17	0.64	·

Of the compounds above, these contain four or more nitrogen atoms:
SMILES	AF4-AF9 inh	FGF22 binding	HNF4A DNA FP	RanGTP-Imp inh	UCH37 inh	Ecoli growth	Vif A3G
CC(=NCCN1CCOCC1)c1c(O)n(C2CCCCC2)c(=O)[nH]c1=O	·	·	-4.0	6.9	2.6	0.68	1%
O=C(N/N=C/c1c(O)n(-c2ccccc2)c(=S)[nH]c1=O)c1ccccc1	13	i	0.7	3.1	2.4	0.69	23%
S=C(NCCc1ccccc1)N1Cc2ccccc2-n2nncc2C1	-0.9	i	-1.7	·	·	·	·

The listing continues.
SMILES	AF4-AF9 inh	FGF22 binding	HNF4A DNA FP	RanGTP-Imp inh	UCH37 inh	Ecoli growth	Vif A3G
COc1ccc(OC)c(NC2=NCCS2)c1	-0.5	i	2.0	-2.4	-11	0.7	-6%
Cn1c[n+](C)cc1C(O)c1ccccc1 (stereo unspecified)	·	·	-3.7&0.5	6.4&-1.4	-2.3&1.7	0.71&0.71	4%&14%
C[C@H](NC(=O)N1C[C@H]2C[C@@H](C1)c1cccc(=O)n1C2)C(=O)Nc1ccc(F)c(F)c1	-6.6	i	-0.9	-6.4	2.2	0.76	·
CCN(CC)C(=O)c1ccc(NC(=O)COc2ccccc2F)cc1	-0.4	·	-2.3	1.4	-0.6	0.65	9%
C=CCn1c(O)c(C(C)=NCCC(c2ccccc2)c2ccccc2)c(=O)[nH]c1=O	·	·	1.4	2.4	1.4	0.69	·
C=CCn1c(O)c(C=NCCCn2ccnc2)c(=O)[nH]c1=O	-2.3	i	0.0	1.9	3.3	0.63	7%
Cc1cccc(C)c1-n1nnnc1C(c1ccnc2ccccc12)N1CCC2(CC1)C(=O)NCN2c1ccccc1 (stereo unspecified)	-3.8	i	1.9	·	·	·	·
Cc1ccccc1-n1c(O)c(/C=N/c2nccs2)c(=O)[nH]c1=O	-0.8&-3.5	i	2.8&0.2	2.6&5.0	3.1&0.3	0.69	-5%&1%
O=P(Oc1ccc(Cl)cc1)(N1CC1)N1CC1	-10	·	5.4	·	1.8	0.69	0%
CC1CCCC(NC(=O)COC(=O)c2cn(C)c3ccccc23)C1C (stereo unspecified)	1.2	i	1.1	·	-1.0	0.65	3%
COc1cccc(Oc2coc3cc(OC(=O)N(C)C)ccc3c2=O)c1	-2.3	i	1.5	0.3	1.1	0.69	4%
COc1ccc(-c2nn(CCC#N)cc2C(=O)NCc2ccccc2)cc1OC	-11	i	-0.2	-0.2	7.1	0.7	·
CN(C)CC#CCC(O)(c1ccccc1)C1CCCC1 (stereo unspecified)	·	·	1.8	-1.9	5.1	0.67	-2%
O=C(COC(=O)Cc1ccccc1)NCCNC(=O)COC(=O)Cc1ccccc1	-1.2	i	4.0	-1.4	2.9	0.68	-5%
COc1cc(C(=O)N/N=C/C23CC[C@@H](O)CC2(O)CC[C@@H]2[C@@H]3CCC3(C)C(C4=CC(=O)OC4)CCC23O)ccc1O (stereo partly specified)	-0.2	i	3.7	2.7	·	·	10%
COc1ccc(-n2c(O)c(C(C)=NCCCn3ccnc3)c(=O)[nH]c2=O)cc1	·	·	-3.3	-0.7	0.9	0.64	12%
O=C(c1ccc(CS(=O)(=O)c2ccccc2)o1)N1CCC2(CC1)OCCO2	·	·	-6.2	-0.1	-1.1	0.72	28%
CCCc1nnc(NC(=O)CCC(=O)N2CCC3(CC2)OCCO3)s1	-6.4	i	-2.9	3.5	5.0	0.67	9%
O=C1NC(=S)NC(=O)C1c1ccccc1	-7.7	i	1.3	·	3.2	0.63	-2%
CN=C(SCc1ccccc1)c1c(O)n(C)c(=O)n(C)c1=O	·	·	2.2	1.6	6.0	0.64	·
c1ccc(CCN2CCCCC2)nc1	-1.9	i	1.6	·	-0.3	0.69	-2%
Oc1ccc2c3c1OC1c4[nH]c5ccccc5c4C[C@@]4(O)C(C2)N(CC2CC2)CC[C@]314 (stereo partly specified)	·	i	3.8	·	0.2	0.66&0.75	·
C[C@H]1CCC/C=C/[C@@H]2C[C@H](O)C[C@H]2[C@H](O)/C=C/C(=O)O1	-2.2&-9.9	i	0.5&1.8	·	4.6	·	·
Cc1nc2ccccn2c1P(=S)(N1CCCCC1)N1CCCCC1	·	·	-3.2	6.1	6.7	0.66	?
NCCCCCC(=O)OC1N=C(c2ccccc2Cl)c2cc(Br)ccc2NC1=O (stereo unspecified)	6.1	i	-1.0	-2.2	2.9	0.68	-1%
COc1ccc(C(O)P(=O)(Oc2ccccc2)Oc2ccccc2)cc1 (stereo unspecified)	-1.9	i	0.6	1.5	1.8	0.69	·
CNc1cc(Cl)c2nonc2c1[N+](=O)[O-]	-3.8	·	2.0	-1.4	14	0.46*	·
CC(C)(C)C(=O)N1Cc2cc(-c3ccccc3)ccc2-n2nncc2C1	-4.2	i	-2.9	·	·	·	·
CN1C(=O)NC(=O)/C(=C/c2ccc([N+](=O)[O-])s2)C1=O	0.0	i	-6.7	-3.7	·	·	?
COc1ccc2nc(NC3=NCCN3)sc2c1	-1.5	i	1.6	-3.7	·	·	10%
CCC12CN3CCN(CC(C3)/C1=N\O)C2	·	·	0.3	0.1	·	·	4%
COc1ccc(C(c2nnnn2-c2c(C)cccc2C)N2CCC3(CC2)C(=O)NCN3c2ccccc2)cc1 (stereo unspecified)	1.8	i	0.8	·	·	·	·
Cn1c(O)c(N=Nc2cccc(S(=O)(=O)N3CCOCC3)c2)c(=O)n(C)c1=O	-5.0	i	-1.7	4.6	13	0.69	2%
O=[N+]([O-])c1ccccc1CCl	·	i	-3.0	·	3.9	0.64	·
S=P(NCCNP(=S)(N1CC1)N1CC1)(N1CC1)N1CC1	0.5	i	4.6	·	2.3	0.66	1%
COC(=O)C1=C(c2ccc(-c3ccccc3)c(F)c2)C[C@@H]2CC[C@H]1N2C(=O)N1CCCC1	8.3	i	-0.3	·	7.5	·	·
C=CCN1C(=O)/C(=C/c2ccc3c(c2)CCCN3CCC)C(=O)NC1=S	·	·	4.2	1.3	4.5	0.69	·
O=[N+]([O-])c1ccc(C(c2ccc([N+](=O)[O-])cc2)c2ccc([N+](=O)[O-])cc2)cc1	-48	i	-2.9	·	-0.1	0.7	-2%
CC12Cc3cn[nH]c3C=C1CCC1C2CCC2(C)C1CCC2(C)O (stereo unspecified)	-1.0	i	7.0	·	3.2	0.69	-1%
C[C@@H]1CN([C@@H](C)CO)C(=O)CCCn2nncc2CO[C@H]1CN(C)C(=O)Oc1cccc2ccccc12	-1.3&-0.7	i	0.9	·	·	·	-2%
Cc1c(N=Nc2c(O)n(-c3ccc(Br)cc3)c(=O)[nH]c2=O)c(=O)n(-c2ccccc2)n1C	-0.3	i	7.9	0.2	14	0.68	2%
CC(C)c1ccc(C2NCc3ccccc3-n3cccc32)cc1 (stereo unspecified)	?	i	0.3	-0.3	2.7	0.59	-9%
C=CCn1c(O)c(C=Nc2ccc(OC)cc2C)c(=O)[nH]c1=O	·	·	2.3	-6.0	-168	0.7	-2%
CC(C)c1ccc(N=Nc2c(O)[nH]c(=O)[nH]c2=O)cc1	-4.8	i	-1.0	-2.2	3.6	0.67	-3%
COc1ccc(C2SCC(=O)Nc3c2c(C)nn3C2CCOC(C)(C)C2)cc1 (stereo unspecified)	·	·	2.1	4.6	1.5	0.66	9%
O=[N+]([O-])c1cccc(CN2CCN(Cc3ccc(Br)cc3)CC2)c1	23	i	0.1	14	6.2	0.67	·
Cc1cc(OCC(=O)N2CCC(C(=O)NCC(C)C)CC2)c2c3c(c(=O)oc2c1)CCCC3	0.6	i	-0.5	-0.1	-0.2	0.66	·
COC(=O)C1=C(c2ccc(F)cc2F)C[C@@H]2CC[C@H]1N2C(=O)NC1Cc2ccccc2C1	-0.4	i	0.8	·	2.0	·	·
C=CC1CN2CCC1CC2c1[nH]c2ccccc2c1CCO (stereo unspecified)	·	·	1.0	4.3	2.5	0.6	1%
CC(=NCCCO)c1c(O)[nH]c(=O)[nH]c1=O	-2.0	i	-0.3	2.8	4.1	0.69	-11%
C[C@H](N)CN1CCc2ccc(Br)cc21	-29	i	4.5	3.3	3.4	·	·
O=c1[nH]c(=O)n(CCC2=CCCCC2)c(O)c1/C=N/N1CCOCC1	0.7	i	-2.5	-1.5	5.9	0.64	7%
C=C1C(=O)O[C@@H]2C[C@@H](C)[C@@H]3C4OC4C(=O)[C@@]3(C)[C@@H](O)[C@H]12 (stereo partly specified)	-2.8	i	2.9	6.8	6.0	·	-10%
CC(C)Cc1nc(N2CCNCC2)c(C#N)c2c1CCC2	·	i	-0.4	-3.9	-22	0.68	·
COc1ccc(OC)c(CNCCc2ccc(OC)c(OC)c2)c1	2.2	i	3.0	0.6	0.9	0.66	·
CN1CCN2c3ccc(N)cc3CC3(C(=O)NC(=O)NC3=O)C2C1 (stereo unspecified)	8.3	i	4.7	11	3.2	0.69	·
COC1=C(C)C(=O)O[C@]12C(=O)C(C)=C1CCCCN3[C@H]([C@@H]4C[C@H](C)C(=O)O4)CC[C@]132	-1.1	i	2.1	·	1.0	·	·
Cc1cccc(OCC(=O)N2CCN(Cc3ccc4c(c3)OCO4)CC2)c1	1.8	i	-2.3	-8.7	-0.2	0.66	6%
O=C1NC(=O)C(=CCc2ccccc2)C(=O)N1	6.5	i	0.4	·	·	·	·
CCC(=NCCCn1ccnc1)c1c(O)n(-c2ccccc2)c(=O)[nH]c1=O	-5.2	i	-2.5	?	4.2	0.69	-2%
CCOC(=O)C1(c2ccccc2)CCN(CCc2ccc(NC(=O)CCC(=O)O)cc2)CC1	-3.0	i	0.3	·	-0.1	0.69	0%
CN(C)C(=O)Oc1ccc(OCc2n(C)c3ccccc3[n+]2C)cc1	·	·	-1.2	0.7	2.1	0.64	-1%
CC(=O)/C=C/c1ccccc1	-0.4	i	3.3	·	2.1	0.75	·
